From PubChem BioAssay
MgrA DNA FP = modulators of Staphylococcus aureus MgrA DNA binding | 84,000 compounds, 0.13% hits | fluorescence polarization | inhibition, %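 (about 10 µg/mL by stock and volumes)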;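 active means above 50% in either of two replicates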;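 further: 0% = protein plus DNA without compound and 100% = DNA alone without protein; higher means less MgrA bound to DNA so lower polarization; one replicate is shown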
Sa helicase inh = S. aureus DNA helicase inhibition; purified S. aureus helicase, fluorescence unwinding assay; about half of the hits fall short of the stated cut; inhibition, %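 (tested at about 80 µM)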; 120,000 compounds, 0.05% hits; AID 485395;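 active means both duplicates at 50% or more, or one of them with a favoured structure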;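 further: 0% = mean of negative control wells and 100% = mean of positive control wells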
Numbers without * were called inactive; x = no result given. Not all compounds are listed. The share of hits here may be higher or lower than overall.

Values run as follows: MgrA DNA FP | Sa helicase inh
> O=C(CSc1nc2sc3c(c2c(=O)n1-c1ccccc1)CCCC3)NCCCN1CCOCC1
  -2.6 | x
> S=C(Nc1ccc2[nH]ccc2c1)NC1CC2C=CC1C2 (stereo not drawn)
  -0.1 | x
> CC(C)N1C(=O)CCNc2ccccc21
  -4.9 | 0
> O=C1NCCc2c(OC3CCCC3)cccc21
  x | 9
> CCn1c(=O)n(CC)c2cc(N3CCCC3)c(NC(=O)Cc3ccccc3)cc21
  x | 10
> O=C(O)C1=C(c2ccccc2)OCCS1
  -1.0 | 6
> CC1CN(CCn2cnc3c(N)ncnc32)CC(C)O1 (stereo not drawn)
  x | -12
> CCCN(CC1CC1)c1cccc(C(=O)O)n1
  -1.4 | -13
> NC(=O)C1(N2CCCCC2)CCN(C(=O)c2ccc(Cn3c(=S)[nH]c4cc5c(cc4c3=O)OCO5)cc2)CC1
  x | 1
> CCCc1ccc(S(=O)(=O)NNC(=O)c2ccc(-n3c(C)ccc3C)cc2)cc1
  0.0 | x
> c1ccc(-c2cn3ccccc3n2)cc1
  2.2 | x
> O=C(CCCn1ncn2c(cc3occc32)c1=O)NC1CCCCCC1
  x | 7
> O=C(OCc1cccnc1)C1CCCN(C2=NS(=O)(=O)c3ccccc32)C1 (stereo not drawn)
  x | -8
> FC(F)(F)COc1nc(N2CCCCC2)nc(N(c2ccccc2)c2ccccc2)n1
  0.0 | 4
> CN(C)S(=O)(=O)c1ccc(C(=O)Nc2nnc(SCC(=O)NCC3CCCO3)s2)cc1 (stereo not drawn)
  x | 3
> COc1ccc(S(N)(=O)=O)cc1C(=O)NCc1ccc2c(c1)OCO2
  x | -6
> NC(=O)c1ccccc1NC(=O)c1cccc(Br)c1
  -12 | 4
> COC(=O)CNS(=O)(=O)c1cccs1
  x | 10
> CCOC(=O)c1c(CSc2ccccc2)n(-c2ccccc2)c2ccc(O)c(CN(C)C)c12
  0.7 | x
> N#CCc1ccc(OCc2ccc(Cl)c(Cl)c2)cc1
  -1.9 | x
> CCOc1ccc(C(=S)N2CCCC2)cc1
  3.1 | -1
> COc1ccc(Nc2cc(C(=O)NCCCN3CCOCC3)c3ccccc3n2)c(OC)c1
  x | 17
> Cc1cccc(OCCn2c(C3CCCO3)nc3ccccc32)c1 (stereo not drawn)
  -4.0 | -6
> O=C(Cc1cn2ccsc2n1)OCc1ccc(Cl)c(Cl)c1
  x | -13
> O=C(NCCC1=CCCCC1)c1sc2ccccc2c1Cl
  0.8 | 7
> COc1cccc(Cn2nnc3c(=O)[nH]c(C4CCN(C(=O)c5ccccc5)CC4)nc32)c1
  -0.2 | 8
> Cc1ccccc1CSCCC(=O)NCc1ccccc1
  x | 3
> CC(C)CCNC(=O)Cn1c(SCc2cccc(F)c2)nc2ccncc21
  x | 21
> COc1ccc(CN(C(=O)Nc2ccc(OC)cc2)C2CCN(C(C)=O)CC2)cc1
  x | 14
> Cc1ccc(N(C)S(=O)(=O)c2ccc3c(c2)CCCC(=O)N3)cc1
  x | 1
> COc1ccc2ccccc2c1C=Nc1ccc(C)cc1
  -0.7 | -17
> COc1cc(C)c(C(=O)O)c(OC)n1
  x | 15
> CC1=C(C)C(=O)C(NCc2ccco2)=CC1=O
  x | -5
> CC1CC(C(F)(F)F)n2ncc(C(=O)O)c2N1 (stereo not drawn)
  -4.8 | 9
> NC(=O)CS(=O)(=O)c1ccc(Cl)cc1
  1.6 | -9
> CCCCCCCCCCC[C@@H](C[C@H]1OC(=O)[C@H]1CCCCCC)OC(=O)[C@@H](CC(C)C)NC=O
  -0.5 | x
> CSc1ccc(S(=O)(=O)NCCN2CCOCC2)cc1
  1.4 | 23
> Clc1ccc(-c2nnc(C3CCC(c4ccccc4)CC3)o2)cc1 (stereo not drawn)
  4.0 | 4
> CCCc1cc2c(=O)c(-c3ccc4c(c3)OCCO4)coc2cc1O
  x | 13
> CCn1c(C(=O)NCc2ccc(Cl)cc2)cc2sccc21
  x | 12
> CCc1cc2c(cc1C(=O)CCN1CCOCC1)OCCO2
  0.3 | 1
> O=C(CCC(=O)N1CCSc2ccccc21)NCc1ccccc1
  1.5 | 8
> O=C(OCC(=O)N1CCCc2ccccc21)c1ccccc1
  0.5 | -1
> CN(C(=O)c1ccc(-c2nc3ccccc3s2)s1)c1ccccc1
  x | 28
> CCCNC(=O)c1[nH]c2cc(OC)ccc2c1Sc1ccccc1
  1.5 | 8
> CCCS(=O)(=O)c1c(S(=O)(=O)CCC)c2cc(CC)ccn2c1C(=O)OC
  x | -19
> COc1ccc(CCn2c(C)cc(C(=O)COC(=O)c3ccco3)c2C)cc1
  x | -8
> CN(c1ccccc1)N1C(=O)c2cccc3cccc(c23)C1=O
  -2.5 | 3
> COC(=O)c1ccccc1Cc1nc(=O)c2ccccc2n1C
  x | 0
> CNC(=O)CN(c1cccc(F)c1)S(C)(=O)=O
  5.4 | 1
> COc1ccc2nc(/N=C(\N)NC(=O)N3c4ccccc4Sc4ccccc43)nc(C)c2c1
  0.5 | 8
> CC(C)NC(=O)c1ccc(N(C)S(C)(=O)=O)cc1
  x | 22
> Cc1cccc(C)c1-n1nnnc1SCC(=O)Nc1ccc2c(c1)OCO2
  1.8 | 5
> O=C(c1ccc(Cl)c(S(=O)(=O)N2CCCC2)c1)N1CCc2ccccc21
  x | 1
> CCCn1c(CCCNC(C)=O)nc2ccccc21
  x | -10
> C=CCC(C)(NCc1ccccc1)c1cccs1 (stereo not drawn)
  x | 9
> Cc1cccc2c(=O)cc(C(F)(F)F)[nH]c12
  -0.8 | x
> O=C(N/N=C/c1ccco1)C1CC12CCC2 (stereo not drawn)
  0.8 | 8
> O=c1cc(CSc2nc3ccccc3s2)c2ccccc2[nH]1
  -6.0 | 16
> CNC(=S)Nc1ccccc1
  x | -6

Rewritten bar-delimited: six of the compounds above.
SMILES | MgrA DNA FP | Sa helicase inh
CN(c1ccccc1)N1C(=O)c2cccc3cccc(c23)C1=O | -2.5 | 3
COC(=O)c1ccccc1Cc1nc(=O)c2ccccc2n1C | x | 0
CNC(=O)CN(c1cccc(F)c1)S(C)(=O)=O | 5.4 | 1
COc1ccc2nc(/N=C(\N)NC(=O)N3c4ccccc4Sc4ccccc43)nc(C)c2c1 | 0.5 | 8
CC(C)NC(=O)c1ccc(N(C)S(C)(=O)=O)cc1 | x | 22
Cc1cccc(C)c1-n1nnnc1SCC(=O)Nc1ccc2c(c1)OCO2 | 1.8 | 5

Next part
Values run as follows: MgrA DNA FP | Sa helicase inh
> O=C(NCc1ccccc1)c1cc(I)ccc1O
  x | -5
> NC(=O)COc1ccc2c(c1)OCO2
  x | 10
> CCOc1ccc2c(c1)sc1nc(=O)n(-c3ccccc3)c(=O)n12
  x | -30
> COc1ccc(CCNC(=O)c2ccc(Cl)cc2)cc1OC
  -2.3 | x
> COc1cc(C(F)(F)F)nc2cc(C(C)(C)C)nn12
  -0.6 | x
> COc1cc(/C=c2\sc3nc4ccccc4n3c2=O)ccc1Oc1nc(N2CCOCC2)nc(N2CCOCC2)n1
  -0.7 | x
> Cc1nc(-c2n[nH]c(=S)o2)cs1
  x | 21
> Cc1nn(C(=O)c2c(Cl)cccc2Cl)c(C)c1Cc1c(Cl)cccc1Cl
  -0.7 | x
> CC(=NCCO)c1c(-c2ccccc2)[nH]n(-c2nc3ccccc3s2)c1=O
  -2.2 | 11
> COc1nc(-c2ccccc2)cc(-c2ccc(C)cc2)n1
  3.9 | 4
> CC(C)Cc1cc(C(=O)Nc2cccc(Cl)c2)no1
  x | -26
> COC(=O)c1ccccc1S(=O)(=O)N1CCC(C(=O)OCC(=O)Nc2ccccc2F)CC1
  x | -7
> Cc1cc(C(=O)Nc2cccc(C(F)(F)F)c2)on1
  x | 16
> Cc1sc(NC(=O)C2COc3ccccc3O2)c(C(N)=O)c1C (stereo not drawn)
  x | 4
> Cn1c(CSc2ccnc3cc(Cl)ccc23)nnc1SCC(=O)c1ccc(Cl)s1
  -0.2 | x
> CCOc1ccccc1OCC(=O)OCC1CC1
  x | -22
> Cc1cc(C)nc(NC2=NCCN2C(=S)Nc2c(C)cccc2C)n1
  -1.8 | -10
> CC1CCCCN1C(=O)Cn1c(=O)oc2ccccc21 (stereo not drawn)
  x | 3
> COc1ccc(Br)cc1CNC(=O)C1CCN(C(=O)N(C)C)CC1
  0.9 | 10
> Cc1noc(COc2ccccc2OCC(O)CN2CCN(C)CC2)n1 (stereo not drawn)
  0.4 | -2

Not a retest: an excerpt of the list.
Values run as follows: MgrA DNA FP | Sa helicase inh
> O=C(CSc1nc2sc3c(c2c(=O)n1-c1ccccc1)CCCC3)NCCCN1CCOCC1
  -2.6 | x
> S=C(Nc1ccc2[nH]ccc2c1)NC1CC2C=CC1C2 (stereo not drawn)
  -0.1 | x
> CC(C)N1C(=O)CCNc2ccccc21
  -4.9 | 0
> O=C1NCCc2c(OC3CCCC3)cccc21
  x | 9

More entries:
Values run as follows: MgrA DNA FP | Sa helicase inh
> CCCN(CCC)C(=O)Nc1cccc(F)c1
  -0.9 | 6
> O=c1cc(CSc2ccc(Cl)cc2)[nH]c(=S)[nH]1
  13 | 8
> CC1CCCC(C)N1CCCNc1ccc2nnc(-c3ccccc3)n2n1 (stereo not drawn)
  -0.9 | 21
> CN1/C(=C/P(=O)(N(C)C)N(C)C)C(C)(C)c2ccccc21
  x | 1
> COc1cc(CN2CCN3CCCC3C2C2CCCCC2)cc(OC)c1 (stereo not drawn)
  -2.0 | -8
> COC(=O)c1ccccc1NC(=O)CSc1ncn[nH]1
  x | -14
> Nc1cccc(-c2ncon2)c1
  -13 | x
> Cc1n[nH]c(C)c1N
  x | 21
> Cc1nnc(SCC(=O)NC2CCCCCC2)[nH]c1=O
  x | 12
> COc1ccc(-c2cnnn2-c2ccc(NC(=O)c3ccccc3C(F)(F)F)cc2)cc1OC
  1.4 | 3
> O=C(CCN1C(=O)COc2ccccc21)NCc1ccccc1
  1.6 | 11
> O=C(CCn1c(=S)oc2ccccc21)NN1CCOCC1
  1.2 | -1
> CN1CCN(CCNC(=O)C2c3ccccc3C(=O)N(C3CCCC3)C2c2cccs2)CC1 (stereo not drawn)
  x | -20
> Cc1ccc2c(c1)C(C(=O)O)=Cc1ccccc1O2
  1.9 | -9
> CC1(C)CC(=O)C2=C(C1)OC(=O)CC2c1ccccc1 (stereo not drawn)
  0.1 | x
> Cc1ccc(CNCC2CCCO2)cc1 (stereo not drawn)
  x | -4
> O=C(O)CN1C(=O)CCS(=O)(=O)c2ccccc21
  -1.2 | 10
> CCSc1cc(C)nc2ncnn12
  0.8 | 2
> O=C1Nc2ccccc2/C1=N\N1C(=O)C2C=CC=CC2C1=O (stereo not drawn)
  -0.5 | 5
> c1ccc(CN2CCN(c3nnc(Cc4cccnc4)c4ccccc34)CC2)cc1
  x | 2
> O=S1(=O)CC=C(CBr)C1
  -4.8 | -11
> CCCn1c2ccccc2c2cnn(CC(=O)NCCOC)c(=O)c21
  x | -20
> O=S(=O)(c1ccccc1)N1CCN(CCO)CC1
  -1.4 | 6
> CC1(C)CCCC(C)(C#CCN2CCCC(c3cccnc3)C2)O1 (stereo not drawn)
  x | 2
> CCOC(=O)N1CCC(NS(=O)(=O)c2ccc3c(c2)C(C)(C)C(=O)N3C)CC1
  2.0 | -4
> Cc1ccc(-c2csc3ncnc(N4CCC(O)CC4)c23)cc1
  -4.8 | x
> O=C(CNS(=O)(=O)c1cccs1)NC(c1ccccc1)c1ccccc1
  0.9 | 3
> Cc1cc2c(SCC(=O)NC3CCCC3)ncnc2s1
  -0.5 | -10
> CC1=CC(=O)CN(S(=O)(=O)c2ccc(C)cc2)C1
  0.2 | 5
> Cc1cc(=O)c2c(Cl)ccc(C)c2[nH]1
  -0.1 | x
> CC(C)(C)S(=O)(=O)CC#N
  -2.2 | x
> COC(=O)c1cc2ccccc2oc1=O
  x | -19
> CC(C)n1ncc2c1N=C(c1ccccc1)N(C1CC1)C21CCCCC1
  x | 9
> CSc1nnc(N2C(=O)CC(c3ccccc3)C3=C2CCCC3=O)s1 (stereo not drawn)
  0.1 | 16
> COc1ccc(-n2c(C)cc(CNC(=O)NC3CCCC3)c2C)cc1
  x | 5
> COc1cc2c(cc1OC)CN(CC(=O)Nc1ccccc1C(=O)NC1CC1)CC2
  x | 9
> N#CC1=C(N=Cc2ccccc2O)CCC1
  x | -20
> CSc1nc2c(c(-c3cccs3)c1C#N)CCCC2
  -0.9 | x
> COCc1cc(=O)oc2cc(OC(C)=O)c(Cl)cc12
  0.0 | x
> CCOCCCn1c(SCc2nc3sc(C(=O)O)c(C)c3c(=O)[nH]2)nnc1-c1ccc(Cl)cc1
  x | -7
> COc1cccc(C(=O)Nc2ccccc2SCc2cc(=O)n3c(C)csc3n2)c1
  x | 21
> COc1ccc(OCC(O)CNC(C)c2ccccc2)cc1 (stereo not drawn)
  1.5 | -10
> CCOc1cc(C2C3=C(CC(C)(C)CC3=O)N(C)C3=C2C(=O)CC(C)(C)C3)ccc1O
  x | 21
> COc1ccccc1NC(=O)N(CC#N)c1ccccc1
  x | 23
> CCc1ccc(NC(=O)CCc2nnc3ccc(N(CC)CC)nn23)cc1
  x | 0
> CC(C)NS(=O)(=O)c1cccs1
  -0.5 | 3
> O=C(O)C(c1ccc(F)cc1)N1Cc2ccccc2C1=O (stereo not drawn)
  x | 25
> O=C(Nc1ccc(C(F)(F)F)cc1)c1csc(-c2ccncc2)n1
  -0.6 | x
> O=C(O)C1CCC(=O)N(C2CCCCC2)C1c1ccccc1 (stereo not drawn)
  -3.1 | x
> C=CCNC(=O)C(c1ccccc1)c1ccccc1
  x | -13
> O=C(NCCSCc1ccco1)Nc1cccc2ccccc12
  0.9 | x
> O=C(NC1CCSC1=O)C1CCCCC1 (stereo not drawn)
  0.6 | 8
> O=C(OC1CCCCC1)C1CCN(S(=O)(=O)c2cccc3nsnc23)CC1
  x | 11
> Cc1cc2c(n1-c1ccc(C(=O)NCC3CCCO3)cc1)CCC(C)C2 (stereo not drawn)
  1.9 | -1
> CCOC(=O)C1CCC(CNC(=O)N2CCSc3ncccc32)CC1 (stereo not drawn)
  x | -7
> CCOc1ccccc1N1CC(c2nc3ccccc3n2CCCOc2c(C)cccc2C)CC1=O (stereo not drawn)
  -0.9 | 5
